Assay outcomes from PubChem.
KCNQ2 block: KCNQ2 channel blockers in CHO-K1 cells – cell-based, FluxOR thallium flux, B-score, primary screen (AID 2156); B-score at 10 µM; O88943; 20 min; active compounds read low; only compounds with negative scores are shown here; some inactives read as strong as hits; 1.1% of 310,000 active;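 active = fluorescence ratio B-score at most minus 3 library SDs, with starting brightness B-score within 2 library SDs, cut at about -5.5 in these data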
Target sequence (O88943 whole entry, looked up): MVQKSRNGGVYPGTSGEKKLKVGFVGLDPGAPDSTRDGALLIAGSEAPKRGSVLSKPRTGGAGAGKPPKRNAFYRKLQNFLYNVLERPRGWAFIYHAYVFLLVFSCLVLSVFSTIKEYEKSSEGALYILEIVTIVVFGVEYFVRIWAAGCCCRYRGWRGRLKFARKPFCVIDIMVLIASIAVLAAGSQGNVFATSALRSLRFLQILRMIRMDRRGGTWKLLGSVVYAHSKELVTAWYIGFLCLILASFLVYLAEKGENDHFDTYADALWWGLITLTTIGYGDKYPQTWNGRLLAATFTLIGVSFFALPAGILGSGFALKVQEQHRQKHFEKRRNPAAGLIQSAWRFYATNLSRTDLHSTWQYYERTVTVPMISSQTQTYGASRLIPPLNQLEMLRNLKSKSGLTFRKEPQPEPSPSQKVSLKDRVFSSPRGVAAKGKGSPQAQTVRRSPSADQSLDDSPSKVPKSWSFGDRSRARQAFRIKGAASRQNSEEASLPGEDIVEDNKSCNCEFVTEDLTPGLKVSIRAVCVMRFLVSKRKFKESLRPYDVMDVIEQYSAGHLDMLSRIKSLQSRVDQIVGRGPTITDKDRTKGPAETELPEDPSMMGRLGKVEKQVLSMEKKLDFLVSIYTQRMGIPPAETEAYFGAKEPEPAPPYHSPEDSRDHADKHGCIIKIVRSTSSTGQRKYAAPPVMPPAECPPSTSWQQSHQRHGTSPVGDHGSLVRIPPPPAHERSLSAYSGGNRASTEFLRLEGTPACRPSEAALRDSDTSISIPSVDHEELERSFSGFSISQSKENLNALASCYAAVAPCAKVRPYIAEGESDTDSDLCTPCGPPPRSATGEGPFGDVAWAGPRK
KCNQ2 block baseline: also measured in KCNQ2 block; calls as there; B-score; measured here: initial fluorescence intensity artifact check;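 brightness before thallium and not channel activity; 0 = typical well and far values either way flag optical interference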
Active calls of the source: *. These rows are one share of the data; rates above refer to the full screens.

For CC(C)c1cc(C(=O)NC2CCCc3c2cnn3-c2ccccc2F)no1 (stereo not given) the results were KCNQ2 block inactive and KCNQ2 block baseline 0.56.
`CCCCN(C)CCNC(=O)c1cc2c(=O)[nH]c3ccccc3c2n1C` gave KCNQ2 block inactive and KCNQ2 block baseline 0.2.
For COc1cccc(S(=O)(=O)Nc2ccc(C(=O)N3CCCCCC3)cc2)c1 the results were KCNQ2 block inactive and KCNQ2 block baseline -0.4.
`C=CCOc1ccnc(-c2ccccc2)n1` gave KCNQ2 block inactive and KCNQ2 block baseline 0.36.
`CC1CCN(C(=O)Cn2c(=O)n(Cc3ccc4c(c3)OCO4)c(=O)c3ccccc32)CC1` gave KCNQ2 block -7.2* and KCNQ2 block baseline 1.1*.
Screening CC1CCN(CC(C)OC(=O)c2ccc3c(c2)OCCO3)CC1 (stereo not given) returned KCNQ2 block inactive and KCNQ2 block baseline 2.1.
`O=C(Cc1ccc(F)cc1)Nc1nnc(-c2ccc(F)cc2)o1` gave KCNQ2 block inactive and KCNQ2 block baseline -2.1.
For Cc1nc2ccccc2n1CC(=O)OCC(=O)Nc1ccc2c(c1)OCCO2 the results were KCNQ2 block inactive and KCNQ2 block baseline -0.98.
Screening COc1nc(N)c(S(=O)(=O)c2ccccc2C)cc1C#N returned KCNQ2 block inactive and KCNQ2 block baseline 0.56.
O=S(=O)(NCCCN1CCOCC1)c1ccc(Cl)s1 was read as KCNQ2 block inactive and KCNQ2 block baseline -0.71.
For Cc1ccsc1C(=O)Nc1ccccc1N1CCOCC1 the results were KCNQ2 block inactive and KCNQ2 block baseline 5.9.
CCOC(=O)N1CCN(C(=O)C(=O)N/N=C/c2ccc(OC)cc2OC)CC1 was read as KCNQ2 block inactive and KCNQ2 block baseline -0.01.
Screening O=C(Cn1cc(C(=O)c2cccs2)c2ccccc21)NCc1cccs1 returned KCNQ2 block inactive and KCNQ2 block baseline -1.2.
For Cc1ccc(S(=O)(=O)NCCCn2ccnc2)cc1C(=O)NC(C)C the results were KCNQ2 block inactive and KCNQ2 block baseline -0.66.
Screening CC(C)(C)C(=O)CNS(=O)(=O)c1ccc(S(=O)(=O)NC2CCCC2)cc1 returned KCNQ2 block inactive and KCNQ2 block baseline 1.4.
Screening CCOC(=O)c1ccc(NC(=O)Nc2c(C)n(C)n(-c3ccccc3)c2=O)cc1 returned KCNQ2 block inactive and KCNQ2 block baseline 0.03.
Screening Nc1nc(Br)c2ccccc2c1-c1ccc(F)cc1 returned KCNQ2 block inactive and KCNQ2 block baseline -2.1.
`O=C(NCc1cccnc1)c1ccccc1NS(=O)(=O)c1ccc(F)cc1F` gave KCNQ2 block inactive and KCNQ2 block baseline -0.91.
For O=C1OC(c2ccccc2)=C/C1=C\N1CCOCC1 the results were KCNQ2 block inactive and KCNQ2 block baseline 4.
Nc1nccnc1C(=O)OCC(=O)NNC(=O)c1ccccc1 was read as KCNQ2 block inactive and KCNQ2 block baseline 0.82.

In the list so far, these contain a halogen:
For CC(C)c1cc(C(=O)NC2CCCc3c2cnn3-c2ccccc2F)no1 (stereo not given) the results were KCNQ2 block inactive and KCNQ2 block baseline 0.56.
`O=C(Cc1ccc(F)cc1)Nc1nnc(-c2ccc(F)cc2)o1` gave KCNQ2 block inactive and KCNQ2 block baseline -2.1.
O=S(=O)(NCCCN1CCOCC1)c1ccc(Cl)s1 was read as KCNQ2 block inactive and KCNQ2 block baseline -0.71.
Screening Nc1nc(Br)c2ccccc2c1-c1ccc(F)cc1 returned KCNQ2 block inactive and KCNQ2 block baseline -2.1.
`O=C(NCc1cccnc1)c1ccccc1NS(=O)(=O)c1ccc(F)cc1F` gave KCNQ2 block inactive and KCNQ2 block baseline -0.91.

Going on with the list:
O=C(Cc1ccc(Cl)c(Cl)c1)N/N=C/c1cccnc1 was read as KCNQ2 block inactive and KCNQ2 block baseline -0.01.
Screening C=CCn1c(SCC(=O)Nc2nccs2)nnc1-c1cc2cccc(OC)c2o1 returned KCNQ2 block inactive and KCNQ2 block baseline 0.09.
For N#Cc1c(F)cccc1N1CCN(Cc2ccc3c(c2)OCO3)CC1 the results were KCNQ2 block inactive and KCNQ2 block baseline -0.45.
`CCOc1cccc(C(=O)NC(=S)Nc2cccc(NC(=O)c3ccccc3Cl)c2)c1` gave KCNQ2 block inactive and KCNQ2 block baseline -1.8.
`COc1cc(OC)cc(C(=O)Nc2ccc(NC(=O)c3ccco3)c(Cl)c2)c1` gave KCNQ2 block inactive and KCNQ2 block baseline 1.1.
Screening CN1CCN(C(=O)c2ccc(Cl)cc2)CC1 returned KCNQ2 block inactive and KCNQ2 block baseline 0.04.
For CC(OCC(O)CNCC1COc2ccccc2O1)c1ccc(Cl)cc1 (stereo not given) the results were KCNQ2 block inactive and KCNQ2 block baseline 1.2.
Screening Cc1cc(C)c(OCCCCN2CCC(C)CC2)c(Br)c1 returned KCNQ2 block inactive and KCNQ2 block baseline -0.52.
Cc1cc([N+](=O)[O-])nn1Cc1ccccc1F was read as KCNQ2 block inactive and KCNQ2 block baseline 0.11.
Screening Cc1ccc(NC(=O)COC(=O)CCC(=O)c2cccs2)cc1C returned KCNQ2 block inactive and KCNQ2 block baseline -1.3.
`COc1ccc(C(C)=O)cc1CN1C(=O)C(C)N(c2ccc(C)cc2)C1=O` (stereo not given) gave KCNQ2 block inactive and KCNQ2 block baseline 0.01.
c1coc(Cn2c(SCc3nc4ccccc4[nH]3)nnc2-c2cccs2)c1 was read as KCNQ2 block inactive and KCNQ2 block baseline 0.54.
CC(=O)C1=C(O)C(=O)N(CCN2CCOCC2)C1c1ccccc1 (stereo not given) was read as KCNQ2 block inactive and KCNQ2 block baseline -1.2.
For CCC(C)(C)NC(=O)C(c1cccs1)N(C(=O)c1ccn[nH]1)c1ccccc1 (stereo not given) the results were KCNQ2 block inactive and KCNQ2 block baseline 0.93.
Screening O=C(CCn1ccc2cc(S(=O)(=O)N3CCCC3)ccc21)NCc1ccccc1 returned KCNQ2 block inactive and KCNQ2 block baseline -0.6.
`COC(=O)C1=C(C)C(c2ccc(OC)cc2)NC(=O)N1` (stereo not given) gave KCNQ2 block inactive and KCNQ2 block baseline -1.1.
For COc1ccccc1N1CCN(S(=O)(=O)c2ccc(-c3cnc(C4CC4)o3)cc2)CC1 the results were KCNQ2 block inactive and KCNQ2 block baseline 2.6.
Screening Cc1ccc(Nc2nc(-c3c(C)nc4ccccn34)cs2)cc1 returned KCNQ2 block inactive and KCNQ2 block baseline -0.1.
`CN(C(=O)c1ccc(N2CCOCC2)c([N+](=O)[O-])c1)C1CCCCC1` gave KCNQ2 block inactive and KCNQ2 block baseline 0.65.
`Nc1cc(Cl)ccc1N1CCCC1` gave KCNQ2 block inactive and KCNQ2 block baseline 0.74.

For reference, 5 of the compounds above:
`COC(=O)C1=C(C)C(c2ccc(OC)cc2)NC(=O)N1` (stereo not given) gave KCNQ2 block inactive and KCNQ2 block baseline -1.1.
For COc1ccccc1N1CCN(S(=O)(=O)c2ccc(-c3cnc(C4CC4)o3)cc2)CC1 the results were KCNQ2 block inactive and KCNQ2 block baseline 2.6.
Screening Cc1ccc(Nc2nc(-c3c(C)nc4ccccn34)cs2)cc1 returned KCNQ2 block inactive and KCNQ2 block baseline -0.1.
`CN(C(=O)c1ccc(N2CCOCC2)c([N+](=O)[O-])c1)C1CCCCC1` gave KCNQ2 block inactive and KCNQ2 block baseline 0.65.
`Nc1cc(Cl)ccc1N1CCCC1` gave KCNQ2 block inactive and KCNQ2 block baseline 0.74.

Next records follow:
For CCC(=O)N1CCc2cc(S(=O)(=O)NCCC(=O)Nc3ccc(OC)cc3)ccc21 the results were KCNQ2 block inactive and KCNQ2 block baseline -0.01.
Cc1[nH]c2ccccc2c1C(=O)CSc1ccc(Cl)cc1 was read as KCNQ2 block inactive and KCNQ2 block baseline -0.05.
For Fc1ccc(Cn2c(SCc3ccc(F)c(F)c3)nnc2C(F)(F)F)cc1 the results were KCNQ2 block inactive and KCNQ2 block baseline -0.33.
For Cc1ccc(S(=O)(=O)C(F)(F)F)cc1NC(=O)c1cccnc1 the results were KCNQ2 block inactive and KCNQ2 block baseline -0.23.
Screening COc1ccc(-c2csc(N3C(=O)CNC3=S)n2)cc1 returned KCNQ2 block inactive and KCNQ2 block baseline 0.66.
`CNS(=O)(=O)c1cc(Cl)ccc1Sc1ccccc1C(=O)O` gave KCNQ2 block inactive and KCNQ2 block baseline 2.6.
For CCc1ccc2c(c1)C(NC(C)=O)C(=O)N2CC (stereo not given) the results were KCNQ2 block inactive and KCNQ2 block baseline 0.33.
CCC(Nc1ccc(OC)cc1)C(=O)N/N=C/c1ccc([N+](=O)[O-])cc1 (stereo not given) was read as KCNQ2 block inactive and KCNQ2 block baseline 1.2.
`CC(Oc1ccc(Cl)cc1)c1ccnn1S(C)(=O)=O` (stereo not given) gave KCNQ2 block inactive and KCNQ2 block baseline 0.17.
`COc1ccc(Oc2c(C)oc3c(CN(C)C)c(O)ccc3c2=O)cc1` gave KCNQ2 block inactive and KCNQ2 block baseline -1.8.
`O=C(NCC1CCCO1)C1c2ccccc2C(=O)N1C1CCCCCCC1` (stereo not given) gave KCNQ2 block inactive and KCNQ2 block baseline 1.4.
O=C(N/N=C/c1ccco1)c1cc(-c2ccc(Br)s2)[nH]n1 was read as KCNQ2 block inactive and KCNQ2 block baseline -0.93.
Screening Cc1ccc2nc(CSc3nc(C)cc(C)c3C#N)[nH]c2c1 returned KCNQ2 block inactive and KCNQ2 block baseline -1.6.
`O=C(N1CCOCC1)C12CC3CC(C1)CC(c1ccccc1)(C3)C2` gave KCNQ2 block inactive and KCNQ2 block baseline -1.
For O=C(N/N=C/c1ccccc1)c1c(O)c2ccccc2[nH]c1=O the results were KCNQ2 block inactive and KCNQ2 block baseline 1.1.
Cn1cc(Br)c(C(=O)Nc2sc3c(c2C#N)CCC3)n1 was read as KCNQ2 block inactive and KCNQ2 block baseline -2.2.
`COc1ccc(C(C)NC(=S)NCc2ccc(F)cc2)cc1OC` (stereo not given) gave KCNQ2 block inactive and KCNQ2 block baseline 0.99.
Screening O=C(O)CSc1cccc[n+]1[O-] returned KCNQ2 block inactive and KCNQ2 block baseline 1.8.
CCOC(=O)c1cc(Br)c(=O)n2ccccc12 was read as KCNQ2 block inactive and KCNQ2 block baseline -0.42.
Screening C=CCC(c1ccccc1F)N(CCN1CCOCC1)C(=O)Nc1cccc(Cl)c1 (stereo not given) returned KCNQ2 block inactive and KCNQ2 block baseline 0.96.
`CC(=O)c1cccc(N(CC(=O)N2CCOCC2)S(C)(=O)=O)c1` gave KCNQ2 block inactive and KCNQ2 block baseline -2.
CCOC(=O)c1c(NC(=O)CSc2nc3ccccc3[nH]2)sc2c1CC(C)(C)NC2(C)C was read as KCNQ2 block inactive and KCNQ2 block baseline -0.07.
Screening CC1=Nc2ccccc2/C1=C/c1c(N)n2c(S(=O)(=O)CC(C)C)nsc2nc1=O returned KCNQ2 block inactive and KCNQ2 block baseline -1.5.
COC(=O)c1scc(S(C)(=O)=O)c1-n1cccc1 was read as KCNQ2 block inactive and KCNQ2 block baseline 3.3.
For CN(C)S(=O)(=O)c1cccc(NC(=O)COC(=O)CNC(=O)c2ccccc2F)c1 the results were KCNQ2 block inactive and KCNQ2 block baseline 1.
`Cc1noc(C)c1S(=O)(=O)N(CC(=O)NCc1ccc(F)cc1)c1ccc(C(C)C)cc1` gave KCNQ2 block inactive and KCNQ2 block baseline 0.08.
Screening CC(C)CCN(C)C1CCN(S(=O)(=O)c2ccc(F)cc2)CC1 returned KCNQ2 block inactive and KCNQ2 block baseline 1.7.
For Cc1ccccc1NC(=O)CN1C(=O)S/C(=C\c2ccc(-c3cc(C(=O)O)ccc3C)o2)C1=O the results were KCNQ2 block inactive and KCNQ2 block baseline -0.35.
`Cn1c(C(=O)NCc2ccc3c(c2)OCO3)cc2sccc21` gave KCNQ2 block inactive and KCNQ2 block baseline -1.9.
Screening C=CCN1C(=O)N(c2ccccc2)C(=O)C1CC(=O)Nc1ccc(OC)cc1 (stereo not given) returned KCNQ2 block inactive and KCNQ2 block baseline 0.01.
COc1ccc(/C=C/c2c([N+](=O)[O-])c(=O)n(C)c(=O)n2C)c(OC)c1OC was read as KCNQ2 block inactive and KCNQ2 block baseline 0.74.
Cn1c(NCc2ccc(Cl)cc2)nc2ccccc21 was read as KCNQ2 block inactive and KCNQ2 block baseline 1.
CCOC(=O)C1=C(C)N2C(=C(C#N)[C@@H]1c1ccc(C(=O)OC)cc1)SC[C@@]2(O)C(C)(C)C was read as KCNQ2 block inactive and KCNQ2 block baseline -3.3.
O=C1CCN(C(=O)/C=C/c2ccccc2)c2ccccc21 was read as KCNQ2 block inactive and KCNQ2 block baseline -0.17.
For COC(=O)c1ccc2c(=O)n(NC(=O)C(c3ccccc3)c3ccccc3)c(=S)[nH]c2c1 the results were KCNQ2 block inactive and KCNQ2 block baseline -0.68.
COc1cc(OC)cc(C(=O)NCc2cc(C)nc3ccccc23)c1 was read as KCNQ2 block inactive and KCNQ2 block baseline -0.22.
`N=C(CC1CC(=O)NC(=O)C1)C1=C(O)CCCC1=O` gave KCNQ2 block inactive and KCNQ2 block baseline 0.95.
Screening CCOC(=O)C1CCCN(C(=O)c2ccc3c(c2)OCO3)C1 (stereo not given) returned KCNQ2 block inactive and KCNQ2 block baseline 0.74.
`COc1cccc(OCCNC(=O)c2ccccc2Sc2ccccc2C#N)c1` gave KCNQ2 block inactive and KCNQ2 block baseline 1.1.
`CC(=O)C(Cc1cccc(F)c1)(Cc1cccc(F)c1)C(C)=O` gave KCNQ2 block inactive and KCNQ2 block baseline 0.08.
`CCOC(=O)C1CC(c2ccccc2)=NNC1=O` (stereo not given) gave KCNQ2 block inactive and KCNQ2 block baseline 0.34.
COc1ccccc1CCCNC(=O)C1CCC(=O)N(CCN2CCOCC2)C1 (stereo not given) was read as KCNQ2 block inactive and KCNQ2 block baseline -0.51.
Screening Cc1cccc(NC(=O)NCc2ccc3c(c2)cc(C)n3C)c1 returned KCNQ2 block inactive and KCNQ2 block baseline -0.06.
`O=C(O)C1CCCCC1C(=O)NCCc1cccc(Cl)c1` (stereo not given) gave KCNQ2 block inactive and KCNQ2 block baseline 0.09.
CN1C(=S)N2CCCN2C1c1ccccc1 (stereo not given) was read as KCNQ2 block inactive and KCNQ2 block baseline 2.9.
